# EPAC1 agonist: validation of human EPAC1 agonists. O95398. EPAC1 Rap1b BODIPY-GDP exchange, fluorescence. Potency, µM, inactives show max response, positive = active, actives largely listed as activators. 1% of 16,000 active. AID 1645883; active = well fitted activation curve with a large enough effect; inconclusive = small, poorly fitted or top-dose-only effect; inactive = no such curve, though single readings can be large or run the other way;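 also: nearly all actives have a fitted effect of over 70% in size; series mostly up to about 76 or 150 µM; scaled to a cAMP control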
# Target sequence (O95398 whole entry, looked up): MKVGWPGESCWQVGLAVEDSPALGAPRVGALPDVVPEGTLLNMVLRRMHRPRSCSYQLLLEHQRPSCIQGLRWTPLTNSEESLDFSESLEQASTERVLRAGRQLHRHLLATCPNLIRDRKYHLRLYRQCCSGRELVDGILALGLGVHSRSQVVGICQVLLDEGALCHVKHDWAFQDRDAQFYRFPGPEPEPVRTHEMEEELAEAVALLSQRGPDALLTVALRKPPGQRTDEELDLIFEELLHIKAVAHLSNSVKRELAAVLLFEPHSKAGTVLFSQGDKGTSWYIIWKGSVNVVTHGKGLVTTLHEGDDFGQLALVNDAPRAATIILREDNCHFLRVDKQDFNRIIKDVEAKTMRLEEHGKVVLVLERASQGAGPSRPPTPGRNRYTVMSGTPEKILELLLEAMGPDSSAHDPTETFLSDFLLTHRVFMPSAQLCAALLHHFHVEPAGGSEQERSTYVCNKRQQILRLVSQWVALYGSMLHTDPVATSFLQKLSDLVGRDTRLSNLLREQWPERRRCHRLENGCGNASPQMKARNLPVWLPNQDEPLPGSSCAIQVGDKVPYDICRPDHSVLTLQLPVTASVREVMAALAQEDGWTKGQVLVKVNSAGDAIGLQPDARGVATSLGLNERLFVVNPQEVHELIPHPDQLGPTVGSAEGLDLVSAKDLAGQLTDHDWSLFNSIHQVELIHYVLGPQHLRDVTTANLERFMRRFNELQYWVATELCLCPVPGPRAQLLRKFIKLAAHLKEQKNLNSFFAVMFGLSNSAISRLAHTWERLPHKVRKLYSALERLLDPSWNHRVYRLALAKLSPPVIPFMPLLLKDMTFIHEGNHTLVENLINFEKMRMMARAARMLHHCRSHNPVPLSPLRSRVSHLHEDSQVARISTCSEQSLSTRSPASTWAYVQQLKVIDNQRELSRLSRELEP
# * hit, by the source's call; ? = inconclusive; & = joins results of further samples; [ ] = remark or other dose. % is scaled to controls: 0 for no effect and ±100 for the full control effect; potency is read from the fitted curve at half-maximal effect.
SMILES,EPAC1 agonist
COc1ccccc1CC(=N)N1C[C@@H]2C(=O)CCC(c3ccccc3)(c3ccccc3)[C@@H]2C1,-12.3%
C=CCOc1ccc(CC(=O)O)cc1Cl,-7.1%
COc1cccc(Cn2c(=O)c(-c3cccs3)nc3cnc(Nc4ccccc4)nc32)c1,-18.8%
CCc1ccc(C=O)cc1,14.6%
Cc1[nH]c2ccccc2c1/C=C/c1ccnc2ccccc12,?
O=C(c1ccco1)N1CCC2(CC1)CN(c1ccccn1)C2,-30.2%[inhibitor]
CS(=O)(=O)N1CCC2(CCN(c3ccncc3)CC2)CC1,-40.6%[inhibitor]
Cc1cc(C)cc(C(=O)NCCn2cc(C(=O)N3CCSCC3)nn2)c1,-3.9%
CCCC1C(=O)N2C(N(C)C)=Nc3ccc(C)cc3N2C1=O (stereo not given),-9.8%
COCc1c(C(=O)NC2CCCCCC2)cnn1-c1nccc(-c2cc(C)sc2C)n1,20.6%
CCNc1ncc2nc(-c3cccs3)c(=O)n(-c3ccccc3)c2n1,?
CC1CN(CC(=O)NCc2ccc3c(c2)OCO3)Cc2cc(Cl)ccc2O1 (stereo not given),7.5%
CN(Cc1cnc2nc(N)nc(N)c2n1)c1ccc(C(=O)N[C@@H](CCC(=O)O)C(=O)O)cc1,-7.9%&13.4%&-10.6%
N#Cc1cc2nc(O)c(O)nc2cc1[N+](=O)[O-],6.1%&4.3%
Cc1ccccc1N=C(N)Nc1ccccc1C,-2.9%&-21.5%
C=CC[C@@H]1/C=C(\C)C[C@H](C)C[C@H](OC)[C@H]2O[C@@](O)(C(=O)C(=O)N3CCCC[C@H]3C(=O)O[C@H](/C(C)=C/[C@@H]3CC[C@@H](O)[C@H](OC)C3)[C@H](C)[C@@H](O)CC1=O)[C@H](C)C[C@@H]2OC,-64.0%[inhibitor]
CC[C@@H]1[C@H]2CCCC(=O)N3CC[C@@H](C[C@@H]1Nc1ccccc1)[C@@H]23,-33.8%[inhibitor]
CCOC(=O)C[C@H]1c2cc(F)ccc2S(=O)(=O)N1c1ccccc1,-7.2%
O=C(NCCc1nnc2n1CCN(Cc1ccc(F)cc1)CC2)c1ccc(F)cc1,-5.9%
OC(CCN1CCCCC1)(c1ccccc1)C1CC2C=CC1C2 (stereo not given),-0.3%&2.3%&-9.5%
COc1cc2c(cc1O)-c1ccccc1CN(C)C2,-17.6%
Cc1ccccc1-c1nc(NC2CCNCC2)c2ccccc2n1,25.3%
Cc1ccccc1N1C(=O)c2cc(S(N)(=O)=O)c(Cl)cc2NC1C (stereo not given),-6.6%&-12.2%&7.3%&0.5%
O=C(O)C[C@H]1c2cc(F)ccc2S(=O)(=O)N1Cc1ccccc1,?
O=C1CC[C@@H](CN(Cc2cccnc2)C2CCN(c3ccc(NC(=O)c4cnccn4)cc3)CC2)N1,16.7%

# The listing continues:
SMILES,EPAC1 agonist
Cc1c(C(=O)N2CCOc3ccc(Cl)cc3C2)sc2ncnc(NCCc3ccccn3)c12,-1.5%
CCNc1ncc2nc(-c3ccc(Cl)cc3)c(=O)n(Cc3ccc(F)cc3)c2n1,-29.3%
CC(=O)Oc1cccc(O)c1,-11.3%
Cc1noc(C)c1-c1nc(NCc2cccs2)c2ccccc2n1,-39.1%[inhibitor]
O=C(C[n+]1cccc(Br)c1)c1ccc(F)cc1,16.2%
CCc1c(C)nc2c(OC)cccc2c1Cl,-57.4%[inhibitor]
CCC(=O)N[C@@H]1c2ccccc2C2(CCN(Cc3ccccn3)CC2)[C@H]1OC,-27.7%
CC(C)CCCC(C)C1CCC2C3CC[C@H]4CC(=O)CC[C@@]4(C)C3CC[C@@]12C (stereo not given in full),22.6%
OC[C@H]1O[C@@H]2O[C@H]3[C@H](O)[C@@H](O)[C@@H](O[C@H]4[C@H](O)[C@@H](O)[C@@H](O[C@H]5[C@H](O)[C@@H](O)[C@@H](O[C@H]6[C@H](O)[C@@H](O)[C@@H](O[C@H]7[C@H](O)[C@@H](O)[C@@H](O[C@H]8[C@H](O)[C@@H](O)[C@@H](O[C@H]1[C@H](O)[C@H]2O)O[C@@H]8CO)O[C@@H]7CO)O[C@@H]6CO)O[C@@H]5CO)O[C@@H]4CO)O[C@@H]3CO,18.6%
COc1ccc2cc1Oc1ccc(cc1)C[C@H]1c3c(cc4c(c3Oc3cc5c(cc3OC)CCN(C)[C@@H]5C2)OCO4)CCN1C,-16.6%
CC[C@@]1(O)C(=O)OCc2c1cc1n(c2=O)Cc2cc3c(CN(C)C)c(O)ccc3nc2-1,112µM*
COc1ccc(C(=O)NCc2nc(-c3cccc(NC(=O)c4ccc(C)s4)c3)oc2C)cc1,2.0%
CCOC(=O)N1CCN(/[N+]([O-])=N/Oc2ccc([N+](=O)[O-])cc2[N+](=O)[O-])CC1,3.1%
CC1=C(/C=C/C(C)=C/C=C/C(C)=C\CO)C(C)(C)CCC1,-16.9%
CC(C)NC(=O)c1cn(C2CCC(NC(=O)C(C)(C)C)CC2)nn1 (stereo not given),-5.6%
Clc1ccccc1-c1cc(NCc2cccnc2)ncn1,?
COc1ccc(CNc2ccnc(-c3ccccc3Cl)n2)c(OC)c1,-76.3%[inhibitor]
COc1ccc(-c2cc(=O)c3ccc(O)cc3o2)cc1,10.8%
CCCOC(=O)C1=C(C)CS[C@@H]2[C@H](NC(=O)COc3ccccc3)C(=O)N12,25.4%
CC(C)=CCC/C(C)=C/CC/C(C)=C/CC/C(C)=C/CO,-44.5%&-74.4%[inhibitor]
Cc1ccc(/C=N/n2c(-c3ccccc3)csc2=S)cc1,0.0%
O=C(NCc1cccnc1)[C@@H]1CC=C[C@@H]2CCN(Cc3ccc(Cl)c(Cl)c3)C(=O)[C@@H]21,-39.8%
O=C(C[N+]12CCCc3cccc(c31)CCC2)c1ccc2ccccc2c1,29.4%
CCN(CC)CCNC(=O)COc1ccc(OC)cc1,-15.0%
CCCCCCc1ccc(N2C[C@H](Cc3ccccc3)[C@@H](CC(=O)NCc3ccc(OC)cc3)C2=O)cc1,1.5%

# (more compounds)
SMILES,EPAC1 agonist
C=C(NC(=O)C(=C)NC(=O)c1csc(C2=N[C@@H]3c4csc(n4)[C@H]4NC(=O)c5csc(n5)[C@H]([C@](C)(O)[C@@H](C)O)NC(=O)[C@H]5CSC(=N5)C(=CC)NC(=O)C([C@@H](C)O)NC(=O)c5csc(n5)[C@]3(CC2)NC(=O)[C@H](C)NC(=O)C(=C)NC(=O)[C@H](C)NC(=O)C([C@@H](C)CC)NC2C=Cc3c([C@H](C)O)cc(nc3C2O)C(=O)O[C@@H]4C)n1)C(N)=O (stereo not given in full),-16.0%
COC(=O)c1ccc(-c2cccc3c2OC(CNC(=O)/C=C/c2ccc(OC)c(OC)c2)C3)nc1 (stereo not given),27.7%
CC(=O)Oc1ccc(/C=C/C(=O)CC2OC(Oc3cc(OC(C)=O)c4c(c3)O[C@@H](c3ccc(OC(C)=O)cc3)CC4=O)C(OC(C)=O)C(OC(C)=O)C2OC(C)=O)cc1 (stereo not given in full),0.7%
C[C@]12CCC(=O)C=C1CC[C@@H]1[C@@H]2[C@@H](O)C[C@@]2(C)[C@H]1CC[C@]2(O)C(=O)COP(=O)(O)O,-2.2%
COc1ccc(C(=O)NCC2Cc3cc(F)cc(-c4cncnc4)c3O2)cc1 (stereo not given),19.7%
Cc1cccc2c3c(ccc12)C1=C(C(=O)C3=O)C(C)CO1 (stereo not given),-22.2%
CC(C)[C@H](CO)Nc1nc(Nc2ccc(C(=O)O)c(Cl)c2)c2ncn(C(C)C)c2n1,3.0%
Cc1c(C(=O)N2CC3CCC2C3)sc2ncnc(NCCc3ccccn3)c12 (stereo not given),-4.7%
COc1ccccc1N1CCN(CCCCN2C(=O)c3ccccc3C2=O)CC1,0.5%&-11.9%&-16.5%
CCCCC/C=C\C/C=C\C/C=C\C/C=C\CCCC(=O)O[C@@H](CO)COC(=O)CCCCCCCCCCCCCCCCC,-1.4%
CN(C)c1ccc(/C=C/c2ccnc3ccc(F)cc23)cc1,?
CN(Cc1ccco1)c1ccnc(-c2ccccc2C(F)(F)F)n1,2.4%
Cc1cnc(SCc2ccccn2)nc1C1CCCN(C(=O)c2scc3c2CCCC3)C1 (stereo not given),-13.7%
C[N+]1(C)CC(O)[C@H](C(=O)[O-])C1 (stereo not given in full),5.9%
Nc1nc2c(nc(Br)n2C2OC(CO)C(O)C2O)c(=O)[nH]1 (stereo not given),?
O=C(c1ccncc1)N1CCC2(CCCN(c3ccccn3)C2)CC1,-45.0%[inhibitor]
CC[C@@H]1Cc2cc(O)ccc2C2=C1c1ccc(O)cc1C[C@H]2CC,16.7%
Nc1nc2c(ncn2[C@@H]2O[C@H](CO)[C@@H](O)[C@H]2O)c(=O)[nH]1,9.0%
COc1cc(OC)c(/C=C2/C(=O)Nc3ccccc32)c(OC)c1,-5.7%
COc1ccc2c(=O)ccoc2c1,?
COc1ccc(-c2coc3cc(O)ccc3c2=O)c(OC)c1,?
NCCNC(=O)c1ncsc1-c1cccc(F)c1,5.8%
CCCCC(CC)COC(=O)/C=C/c1ccc(OC)cc1 (stereo not given),17.3%
C=C(C)C1CC=C(C(=O)O)CC1 (stereo not given),-9.5%&-13.4%
NCC(O)CC(=O)O (stereo not given),-17.7%

# Rewritten field by field: part of the list above.
Cc1cnc(SCc2ccccn2)nc1C1CCCN(C(=O)c2scc3c2CCCC3)C1 (stereo not given)
  EPAC1 agonist: -13.7%
C[N+]1(C)CC(O)[C@H](C(=O)[O-])C1 (stereo not given in full)
  EPAC1 agonist: 5.9%

# Carrying on:
SMILES,EPAC1 agonist
C[N+]1(C)CCC(OC(=O)C(O)(c2ccccc2)C2CCCC2)C1 (stereo not given),14.1%&25.6%
COCCC1CCCCN1Cc1nc(N2CCCCC2)c2cc(OC)c(OC)cc2n1 (stereo not given),6.1%
Clc1ccccc1-c1ccc2ncnc(N3CCNCC3)c2c1,-8.5%
OCCCNCc1cc2ccc(F)cc2nc1N1CCN(c2cccc(Cl)c2)CC1,2.2%
O=Cc1ccccc1-c1cn(CCCOCc2ccccc2)nn1,?
Cc1csc(C)[n+]1CCC1CCCCC1,?
COc1cccc(Cn2c(=O)cnc3cnc(N4CCOCC4)nc32)c1,?
C=CCc1cc(OC)c(O)c(C(=O)NCCO)c1,-9.4%
CC(C(O)c1ccccc1)N(C)CCOC(c1ccccc1)c1ccccc1 (stereo not given),-1.5%
CCn1c(-c2ccccc2F)nc2cc(NC(C)=O)cc(C(=O)N3CCC[C@H]3C(=O)OC)c21,14.5%
Cc1ccccc1-c1cc2c(c(OC3CCOC3)c1)OCCN(C(=O)Cn1cccn1)C2 (stereo not given),6.2%
COc1ccc(-c2c(-c3cc(OC)c(OC)c(OC)c3)noc2C)cn1,-24.2%
Nc1ncnc2c1c(I)cn2C1OC(CO)C(O)C1O (stereo not given),-10.1%&-4.8%&-12.7%
Cc1cc(C)n(CC(=O)N2CCC(n3c(C(C)C)nc4cccnc43)CC2)n1,0.8%
Cc1cc2nccc(C)c2cc1C,?
Cc1c2oc3c(C)ccc(C(=O)N[C@@H]4C(=O)N[C@@H](C(C)C)C(=O)N5CCC[C@@H]5C(=O)N(C)CC(=O)N(C)[C@@H](C(C)C)C(=O)O[C@H]4C)c3nc-2c(C(=O)N[C@@H]2C(=O)N[C@@H](C(C)C)C(=O)N3CCC[C@@H]3C(=O)N(C)CC(=O)N(C)[C@@H](C(C)C)C(=O)O[C@H]2C)c(N)c1=O,-9.5%
Cc1cc(N)c2cc(NC(=O)Nc3ccc4nc(C)cc(N)c4c3)ccc2n1,56.2µM*
CSc1nc(N)c2ncn([C@H]3O[C@H](COP(=O)(O)OP(=O)(O)OP(=O)(O)O)[C@@H](O)[C@@H]3O)c2n1,-21.4%
COCC(=O)N1CCC[C@@]2(CCN(Cc3ccccc3)C2)C1,-2.1%
Cc1cccc(CNc2nc(-c3cccnc3)nc3ccccc23)c1,11.8%
Nc1nc(N)c(N=O)c(OCC2CCCCC2)n1,-1.7%
CN(C)C(=O)COC(=O)Cc1ccc(OC(=O)c2ccc(N=C(N)N)cc2)cc1,-6.9%
Cc1c(CCO)sc[n+]1CC(=O)c1ccccc1,-24.9%
COc1ccc(-c2cnc(-c3cccnc3)o2)cc1,-23.8%
C(=C\c1ccnc2ccccc12)/c1ccc(N2CCNCC2)cc1,-52.6%[inhibitor]

# (further entries)
SMILES,EPAC1 agonist
COc1ncc2nc(-c3cccs3)c(=O)n(CCc3ccccc3)c2n1,?
CC1CCC(C(C)C)[C@H](OC(=O)c2ccccc2)C1 (stereo not given in full),?
Cc1ccc2c(c1)C(=O)[C@@]1(O)CCN(c3ccccc3)C1=N2,-21.6%
COC(=O)C1CCN(Cc2ccc3c(c2)CN(C(=O)C2Cc4ccccc4O2)CCO3)CC1 (stereo not given),-0.8%
O=c1cc(-c2ccc(O)cc2)oc2ccc(O)cc12,18.0%
CC(C)(C)C(O)/C=C/c1ccc2c(c1)OCO2 (stereo not given),-35.9%[inhibitor]

# Structures above containing a Cl atom (twelve):
SMILES,EPAC1 agonist
C=CCOc1ccc(CC(=O)O)cc1Cl,-7.1%
CC1CN(CC(=O)NCc2ccc3c(c2)OCO3)Cc2cc(Cl)ccc2O1 (stereo not given),7.5%
Cc1ccccc1N1C(=O)c2cc(S(N)(=O)=O)c(Cl)cc2NC1C (stereo not given),-6.6%&-12.2%&7.3%&0.5%
Cc1c(C(=O)N2CCOc3ccc(Cl)cc3C2)sc2ncnc(NCCc3ccccn3)c12,-1.5%
CCNc1ncc2nc(-c3ccc(Cl)cc3)c(=O)n(Cc3ccc(F)cc3)c2n1,-29.3%
CCc1c(C)nc2c(OC)cccc2c1Cl,-57.4%[inhibitor]
Clc1ccccc1-c1cc(NCc2cccnc2)ncn1,?
COc1ccc(CNc2ccnc(-c3ccccc3Cl)n2)c(OC)c1,-76.3%[inhibitor]
O=C(NCc1cccnc1)[C@@H]1CC=C[C@@H]2CCN(Cc3ccc(Cl)c(Cl)c3)C(=O)[C@@H]21,-39.8%
CC(C)[C@H](CO)Nc1nc(Nc2ccc(C(=O)O)c(Cl)c2)c2ncn(C(C)C)c2n1,3.0%
Clc1ccccc1-c1ccc2ncnc(N3CCNCC3)c2c1,-8.5%
OCCCNCc1cc2ccc(F)cc2nc1N1CCN(c2cccc(Cl)c2)CC1,2.2%

# Source: PubChem

# This is a subset; count on the stated rates, not on these rows.
